Compound activity as filed in PubChem.
miR-21 FLuc = miR-21 reporter, rising signal; HeLa miR-21 FLuc reporter, luciferase, 48 h; Potency, µM (titrated, usually from 38.3 µM), for the others: at the top dose reporter change, positive = more light; 340,000 tested, under 10 active; AID 2288; active = well fitted rising curve with a large enough effect; inconclusive = small, poorly fitted or top-dose-only effect; inactive = no such curve, though single readings can be large or run the other way;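 also: % of control where 0% means no effect; miR-21 action dims this reporter so a rising signal means less miR-21 action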
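Using DMEM plus 10% FBS, HeLa miR-21-FLuc cells are incubated with test compounds (final up to about 40uM) for 48 hours; firefly luciferase signal is then imaged following reagent-mediated lysis.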
Rango-impB inh = inhibitors of Rango-importin beta complex formation; Potency, µM (highest dose often 92.2 µM), inactives show at the top dose inhibition of complex formation; 340,000 compounds, 0.031% hits; AID 540263; Q14974; Rango CFP/YFP FRET sensor + importin beta, 45 min; active = rising FRET ratio curve, often small or poorly fitted; inconclusive = mostly compound fluorescence or quenching in the first reads; inactive = flat curves in all reads;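 also: potency is read from the fitted curve at half-maximal effect; 0% = DMSO wells and 100% = buffer wells lacking importin beta; nearly all actives have a fitted effect of over 15% in size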
Target sequence (Q14974 whole entry, looked up): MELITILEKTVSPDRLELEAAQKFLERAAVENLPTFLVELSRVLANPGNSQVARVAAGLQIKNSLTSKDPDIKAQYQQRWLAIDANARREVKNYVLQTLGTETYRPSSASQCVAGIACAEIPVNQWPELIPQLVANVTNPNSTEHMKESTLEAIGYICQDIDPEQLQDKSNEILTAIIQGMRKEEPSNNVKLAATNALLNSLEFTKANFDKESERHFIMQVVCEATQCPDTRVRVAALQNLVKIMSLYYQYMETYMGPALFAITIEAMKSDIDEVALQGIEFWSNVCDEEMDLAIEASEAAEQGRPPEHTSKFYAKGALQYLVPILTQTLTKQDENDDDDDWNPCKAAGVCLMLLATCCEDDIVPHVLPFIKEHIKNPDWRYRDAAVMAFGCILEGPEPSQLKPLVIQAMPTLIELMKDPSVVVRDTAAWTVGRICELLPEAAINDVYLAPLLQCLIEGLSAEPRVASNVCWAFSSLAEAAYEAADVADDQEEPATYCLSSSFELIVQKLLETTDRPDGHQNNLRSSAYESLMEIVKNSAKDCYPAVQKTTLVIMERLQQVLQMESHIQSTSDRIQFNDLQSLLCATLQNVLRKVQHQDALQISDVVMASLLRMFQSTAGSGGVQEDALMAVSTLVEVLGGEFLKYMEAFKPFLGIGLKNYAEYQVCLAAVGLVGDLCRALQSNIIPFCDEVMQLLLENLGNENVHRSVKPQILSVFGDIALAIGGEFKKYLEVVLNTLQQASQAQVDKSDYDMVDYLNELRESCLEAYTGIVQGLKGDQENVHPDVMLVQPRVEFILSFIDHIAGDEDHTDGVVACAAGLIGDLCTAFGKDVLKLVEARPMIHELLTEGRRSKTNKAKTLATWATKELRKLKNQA
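FRET biosensor (snurportin 1 IBB flanked by EYFP and cerulean), 50 nM, with compound 5 min, then 0.125 microM importin beta in PBS, 1 mM DTT, 0.02% Tween-20, 0.1% BSA. CFP/YFP ratio read after 45 min at room temperature; pre-read flags interference.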
Rango dissoc inh = prevents RanGTP from dissociating the Rango-importin beta complex; Biochemical FRET Rango-importin beta, RanGTP-induced dissociation; Potency, µM (top dose mostly 46.1 µM), without a hit: at the top dose activity change, negative = inhibition; 340,000 compounds, 0.071% hits; O95149+P62826; active means falling FRET ratio curve, often poorly fitted, with flat reads before Ran was added; inconclusive means other falling curves, or compound fluorescence or quenching; inactive means flat or rising ratio curve;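 also: potency is read from the fitted curve at half-maximal effect; % of control where 0% means no effect; nearly all actives have a fitted effect of over 45% in size; -100% = wells without RanGTP and RCC1; the record marks most hits as doubtful in a second field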
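Two FRET readings bracket the reaction: one 5 min after compound meets Rango–importin beta, another 45 min after RanGTP-RCC1 (0.6 uM Ran, 0.2 uM RCC1, 2 mM GTP) is added. Only the second defines inhibition.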
GLA inh pH 4.5 = blocks human alpha-galactosidase A at pH 4.5. P06280. purified enzyme, 4-MU-alpha-Gal fluorescence, pH 4.5. activity change, negative = inhibition, % at 105 µM. 230,000 tested, under 10 active. AID 1467; inconclusive = small, poorly fitted or top-dose-only inhibition, or a rising curve; inactive = flat fitted curve, though single readings scatter; no compound was filed as active;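 also: 0% = full activity with enzyme and -100% = basal without enzyme; dose as in the result columns while the protocol names 77 µM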
* = called active by the depositor; ? = inconclusive; nt = not tested or not shown; & = joins results of further samples. An excerpt; count on the stated rates, not on these rows.

SMILES | miR-21 FLuc | Rango-impB inh | Rango dissoc inh | GLA inh pH 4.5
Cc1cc(SC(C)C(=O)O)nc2ccccc12 (centres undefined) | -5% | 0.0% | -1% | -7
Cc1cc(F)ccc1NC(=O)c1cc(S(=O)(=O)N2CCc3ccccc32)cn1C | 5% | 0.5% | -9% | nt
CC(C)c1nnc(NC(=O)c2cc3ccccc3o2)s1 | -56% | 2.7% | -5% | nt
CCOC(=O)Nc1ccc2c(c1)N(C(=O)OCCN(C)C)c1ccccc1CC2 | -9%&-6% | -0.1%&10% | -12%&12% | 6&0
COc1ccccc1CNC(=O)C1CCCN(S(=O)(=O)c2cccc3cccnc23)C1 (centres undefined) | 0% | -0.9% | 2% | -6
CN(C(=O)COC(=O)c1ccccc1OCc1ccc(F)cc1)C1CCS(=O)(=O)C1 (centres undefined) | nt | 6.9% | 1% | nt
COc1cccc(C(=O)NCC2(c3ccccc3)CCCC2)c1OC | 15% | -0.1% | 17% | nt
CC(=O)Oc1ccccc1C(=O)OCCN=C1NS(=O)(=O)c2ccccc21 | -1% | -1.5% | 13% | nt
CCOc1ccc(N(CC(=O)OC)S(=O)(=O)c2ccc3c(c2)n(C)c(=O)c(=O)n3C)cc1 | -4%&-3% | 3.0% | -3% | -10
S=c1[nH]nc(Cc2ccc(Cl)cc2)o1 | 0% | -2.3% | 1% | 6
O=C(Nc1ccc(Cl)c(-c2nc3ccccc3[nH]2)c1)c1cccnc1 | 7% | 6.1% | 7% | 0
CN(C)S(=O)(=O)c1ccc2c(c1)C(=NNC(N)=O)c1cc(S(=O)(=O)N(C)C)ccc1-2 | -1% | -0.8% | 4% | nt
COc1ccc(OC)c(S(=O)(=O)N2CCC(C(=O)Nc3cccc(C(F)(F)F)c3)CC2)c1 | 20% | -2.0% | -1% | -14
c1ccc(-c2cnnc3ccccc23)cc1 | nt | 3.1% | -5% | nt
Cc1ccc(NC(=O)COc2ccc(/C=C3/NC(=O)NC3=O)cc2)cc1 | 5% | -1.2% | -6% | nt
O=C(NCCCn1ccnc1)c1ccc(Cl)c(S(=O)(=O)N2CCOCC2)c1 | -2% | 0.5% | 6% | 6
Cc1ccc(CN2CCC(c3nc4ccc(Cl)cc4[nH]3)CC2)cc1 | 15% | 0.2% | 10% | 5
Cc1cc(F)ccc1S(=O)(=O)Nc1c(C)n(C)n(-c2ccccc2)c1=O | -1% | ? | 17% | -5
O=C(c1cccc(S(=O)(=O)N2CCCC2)c1)N1CCN(c2ccccc2)CC1 | 21% | 2.7% | -8% | -3
COc1ccccc1CNC(=O)[C@H](CCSC)NC(=O)[C@@H]1Cc2ccccc2CN1 | 0% | -0.2% | -4% | nt
COCc1cc(CN2CCCC(C(=O)Nc3ccc(-c4ccco4)cc3)C2)ccc1OC (centres undefined) | -1% | 4.2% | 17% | nt
O=C(O)CC1SC(=Nc2ccccc2)N(c2ccccc2)C1=O (centres undefined) | -5% | 2.3% | -6% | -9
CCSc1nnc(-c2ccccc2N)c(=O)[nH]1 | -34% | 9.7% | 3% | -4
COc1ccccc1NC(=O)CSc1nc(C)c2c(c1C#N)CCCC2 | -1% | -2.1% | 4% | -4
COc1ccc(/C=N/NC(=O)CCn2nnc3ccccc32)cc1 | -10% | -4.2% | 9% | -3
More compounds:
SMILES | miR-21 FLuc | Rango-impB inh | Rango dissoc inh | GLA inh pH 4.5
O=C(Cn1c(=O)[nH]c2ccccc2c1=O)N1CCN(Cc2ccc3c(c2)OCO3)CC1 | 22% | 0.8% | 1% | nt
COc1ccc(/C=C/C(=O)c2cc(F)ccc2OC(=O)c2ccccc2OC)cc1OC | ? | ? | ? | 3
Oc1ccccc1C(=S)N1CCN(c2cccc(Cl)c2)CC1 | 3% | -2.1% | 23% | 4
COc1ccccc1CNC(=O)C(=O)Nc1ccc(C(=O)N2CCC(C)CC2)cc1 | 11% | -1.2% | 14% | nt
Cc1cc(=O)oc2cc(OCC(=O)N3CCN(C(=O)C4COc5ccccc5O4)CC3)ccc12 (centres undefined) | 13% | 6.4% | 10% | nt
CN1C(c2ccc(F)cc2)=CS/C1=C(/C#N)c1nnc(N2CCOCC2)n1-c1ccccc1 | 0% | -0.1% | -9% | -1
N/C(Cc1cccc2ccccc12)=N\OC(=O)c1ccc2c(c1)OCO2 | -1% | 1.6% | -12% | 5
O=C1CC(NCc2ccncc2)C(=O)N1c1ccccc1 (centres undefined) | -3% | -9.6% | 9% | 2
COc1cccc(-c2nnn(CCc3nn[nH]n3)n2)c1 | 12% | -0.9% | 12% | 6
O=C(Cn1c(=O)n(-c2ccccc2)c(=O)n1CC(=O)N1CCCCC1)N1CCCCC1 | -1% | -1.1% | 21% | 0
COc1ccc(CSCC(=O)Nc2ccccc2SC)cc1 | 5% | 0.5% | 11% | -5
CNS(=O)(=O)c1cccc(C(=O)OCC(=O)Nc2ccccc2OC(F)F)c1 | 2% | 0.2% | 1% | 2
CCOc1ccc(C2Nc3ccccc3NC3=C2C(=O)CC(C)(C)C3)cc1OC (centres undefined) | -14% | 4.1% | -16% | nt
O=C1CN(C(=O)NCC(=O)N[C@@H](C(=O)O)c2ccccc2)c2ccccc2N1 | 1% | 0.5% | -4% | nt
O=C(CN(C(=O)c1csnn1)c1ccccc1C(F)(F)F)NCc1ccccc1 | 2% | -1.7% | 17% | nt
Cc1ccc(C(=O)N2CCN(c3ncnc4c(C)csc34)CC2)cc1 | -2% | -1.3% | 2% | -1
O=C(O)/C=C/c1ccc2c(c1)OCCO2 | 1% | 0.6% | -2% | 6
COC(=O)c1[nH]c2ccccc2c1NS(=O)(=O)c1ccc(F)c(C)c1 | -7% | -0.2% | -3% | 2
COc1ccc(-c2nnnn2C)cc1S(=O)(=O)NCc1ccccc1 | -4% | -0.6% | -10% | 4
CCCn1c(CCNc2nc(-c3ccc(Cl)c([N+](=O)[O-])c3)cs2)nc2cc(Cl)c(Cl)cc21 | 0% | -0.5% | 13% | nt
CC(=O)NC1(c2ccccc2)CCN(Cc2nnnn2C(C)(C)C)CC1 | -2% | 1.7% | 1% | 5
C[C@H](CO)N1C[C@H](C)[C@@H](CN(C)C(=O)NC2CCCCC2)Oc2ccc(NC(=O)c3ccncc3)cc2C1=O | nt | 1.8% | 1% | nt
CS(=O)(=O)c1ccc2nc(NC(=O)CCC(=O)c3cccs3)sc2c1 | -16% | -1.1% | -4% | 2
COc1ccc(NC(=O)CC2CC3CCC2C3)cn1 (centres undefined) | -39% | 0.3% | -10% | 9
Cc1c(C(=O)O)sc(S(=O)(=O)N2CCN(C(=O)CC(C)c3ccccc3)CC2)c1C(=O)O (centres undefined) | nt | 4.4% | -1% | nt
Later entries
SMILES | miR-21 FLuc | Rango-impB inh | Rango dissoc inh | GLA inh pH 4.5
Cc1c(Cc2ccccc2)c(=O)oc2c(CN(C)C)c(O)c(Cl)cc12 | 2% | ? | ? | ?
COc1cc2[nH]c(=O)n(CCC(=O)NC3CCCC3)c(=O)c2cc1OC | -2% | 4.5% | 3% | 0
COC(=O)c1ccc(CN2CCCC(CCC(=O)NCc3ccc(C)o3)C2)cc1 (centres undefined) | -9% | -0.6% | 0% | 1
COc1cccc(/C=C/C(=O)c2ccc3c(c2)OCCO3)c1OC | 3% | 0.4% | 14% | nt
Cc1ccc(SC(C)C(=O)Nc2cccnc2)cc1 (centres undefined) | -6% | ? | -1% | -18
CCS(=O)(=O)N1CCN(S(=O)(=O)c2ccc3c(c2)OCCO3)CC1 | 6% | 9.9% | 0% | nt
CN1C[C@@H]2[C@@H]3C(=O)N(C)C(=O)[C@@H]3[C@](C)(C1=O)N2C(=O)c1ccc(C(F)(F)F)cc1 | nt | 2.6% | -4% | nt
COc1cc(NC(=O)c2cccc(COCC(F)(F)C(F)F)c2)cc(OC)c1OC | 4% | 4.8% | 11% | 1
CC(/C=N/NC(=O)c1cccc([N+](=O)[O-])c1)=C\c1ccccc1 | -19% | 2.9% | 6% | -5
COc1ccc(-n2c(SCC(=O)Nc3sc4c(c3C#N)CCCC4)nnc2-c2ccccc2OC)cc1 | -3% | -0.1% | 2% | -12
Nc1nnc(SCC(=O)OCC(=O)c2ccccc2Br)s1 | 0% | -2.7% | 2% | 1
Cc1ccc(/C=C2\SC(=S)N(C(Cc3ccccc3)C(=O)O)C2=O)cc1 (centres undefined) | -4% | 1.3% | -11% | 1
COc1ccc(CNc2oc(-c3ccccc3)nc2C#N)cc1 | -30% | 0.5% | -17% | -4
Cc1ccc(C(=O)C(OC(=O)CCC(=O)Nc2cccc(C)c2)c2ccccc2)cc1 (centres undefined) | -4% | 3.2% | -5% | -24
CCOc1cc(/C=N/NC(=O)CN2CCOCC2)ccc1OCc1ccccc1 | -6% | -2.8% | 11% | 0
CCCCCn1c(=O)[nH]c2cc(C(=O)NCc3ccco3)ccc2c1=O | -1% | 3.5% | -8% | 8
O=C(NCCN1CCOCC1)c1cc2cc([N+](=O)[O-])ccc2s1 | -8% | 0.9% | 4% | 2
Cc1onc(-c2c(Cl)cccc2Cl)c1C(=O)N=C(N)N1CCOCC1 | 8% | -0.9% | 14% | -13
COC(=O)C(NC(=O)C(C)NC(=O)OCc1ccccc1)C(C)C (centres undefined) | 0% | 7.2% | -4% | 0
Cc1onc(-c2ccccc2)c1C(=O)Nc1ccc(S(=O)(=O)Nc2nccs2)cc1 | 2% | -0.7% | 0% | -3
Cn1c(=O)c2c(nc(CN3CCN(c4ccc(F)cc4)CC3)n2Cc2ccccc2F)n(C)c1=O | 1% | 3.7% | 52% | -2
CCOC(=O)N1CCN(S(=O)(=O)c2ccc(OCC(=O)OC)cc2)CC1 | -4% | -0.1% | -8% | -1
COc1cc(CNCc2ccccc2Cl)ccc1OCC(=O)NC1CCCCC1 | -3% | 2.7% | -7% | nt
Cc1ccnc2nc(C(=O)Nc3ccc4c(c3)OCO4)nn12 | -39% | 2.5% | -4% | 5
O=C(NC1CC1)c1ccc(NS(=O)(=O)c2ccc(F)cc2)cc1 | nt | -1.2% | 7% | nt
Cc1cc(NC(=O)CCC(=O)N(c2ccccc2F)C(C(=O)NC2CCCC2)c2ccccc2)no1 (centres undefined) | 2% | -0.8% | -1% | nt
O=C(c1ccccc1NS(=O)(=O)c1ccc([N+](=O)[O-])cc1[N+](=O)[O-])N1O[C@@H]2C=C[C@H]1C2 | nt | 2.7% | -3% | nt
O=C(Nc1ccc(F)cc1Cl)C1CCN(C(=O)Nc2ccccc2)CC1 | -24% | -1.9% | -25% | nt
CCSc1ncnc2c1sc1nc3c(cc12)COC(C)(C)C3 | -57% | -3.2% | 13% | -7

Exported with tabs: 12 of the compounds above
SMILES	miR-21 FLuc	Rango-impB inh	Rango dissoc inh	GLA inh pH 4.5
O=C1CN(C(=O)NCC(=O)N[C@@H](C(=O)O)c2ccccc2)c2ccccc2N1	1%	0.5%	-4%	nt
O=C(CN(C(=O)c1csnn1)c1ccccc1C(F)(F)F)NCc1ccccc1	2%	-1.7%	17%	nt
Cc1ccc(C(=O)N2CCN(c3ncnc4c(C)csc34)CC2)cc1	-2%	-1.3%	2%	-1
O=C(O)/C=C/c1ccc2c(c1)OCCO2	1%	0.6%	-2%	6
COC(=O)c1[nH]c2ccccc2c1NS(=O)(=O)c1ccc(F)c(C)c1	-7%	-0.2%	-3%	2
COc1ccc(-c2nnnn2C)cc1S(=O)(=O)NCc1ccccc1	-4%	-0.6%	-10%	4
CCCn1c(CCNc2nc(-c3ccc(Cl)c([N+](=O)[O-])c3)cs2)nc2cc(Cl)c(Cl)cc21	0%	-0.5%	13%	nt
CC(=O)NC1(c2ccccc2)CCN(Cc2nnnn2C(C)(C)C)CC1	-2%	1.7%	1%	5
C[C@H](CO)N1C[C@H](C)[C@@H](CN(C)C(=O)NC2CCCCC2)Oc2ccc(NC(=O)c3ccncc3)cc2C1=O	nt	1.8%	1%	nt
CS(=O)(=O)c1ccc2nc(NC(=O)CCC(=O)c3cccs3)sc2c1	-16%	-1.1%	-4%	2
COc1ccc(NC(=O)CC2CC3CCC2C3)cn1 (centres undefined)	-39%	0.3%	-10%	9
Cc1c(C(=O)O)sc(S(=O)(=O)N2CCN(C(=O)CC(C)c3ccccc3)CC2)c1C(=O)O (centres undefined)	nt	4.4%	-1%	nt
